VACV Venus inh: vaccinia inhibition (Venus reporter). Vaccinia virus Venus reporter expression, fluorescence. Potency, µM (highest dose often 36.5 µM), for the others: at the highest dose activity change, negative = inhibition, hits mostly inhibitors. 330,000 tested, 0.46% active; active means well fitted inhibition curve with a large enough effect; inconclusive means small, poorly fitted or top-dose-only effect; inactive means no such curve, though single readings can be large or run the other way; tested in A549 cells; further: nearly all actives have a fitted effect of over 30% in size; inactives centre near -10
Vaccinia mCherry: inhibitors of vaccinia virus infection (mCherry reporter signal); Vaccinia virus mCherry reporter infection, fluorescence; about a quarter of the inactives have no number; Potency, µM (series often up to 36.5 µM), inactives show top-dose activity change, negative = inhibition, most hits filed as inhibitors; 310,000 tested, 0.63% active; AID 720579; active = well fitted inhibition curve with a large enough effect; inconclusive = small, poorly fitted or top-dose-only effect; inactive = no such curve, though single readings can be large or run the other way; tested in A549 cells; further: nearly all actives have a fitted effect of over 35% in size; inactives centre near -10
The depositor's hits bear a star; i = inactive; ? = inconclusive; / = not tested or not shown; [ ] = dose if it differs, or a comment. On the % scale 0 is the no-effect control and ±100 the full control effect; potency means the concentration at half of the fitted maximal effect. Not a hit list; overall some 0.82% were active at least once.

SMILES	VACV Venus inh	Vaccinia mCherry
CNC(=O)c1cccnc1Nc1cccc(C(F)(F)F)c1	?	?
Cc1nc2ccccc2nc(C)c1=NOCc1ccc(C#N)cc1	-24%	-5%
N#CCCN(C(=O)COC(=O)C1=COCCO1)c1ccc(F)cc1	-3%	-14%
Cc1ccc(NC(=S)NCc2ccc3c(c2)OCO3)c(C)c1	-23%	i
COc1ccc(NC(=O)C2CCCN2S(=O)(=O)c2ccc3nc(-c4ccccc4)[nH]c3c2)cc1 (stereo not given)	11%	-7%
COc1ccc(C)cc1S(=O)(=O)N(CC(=O)O)c1ccccc1	-8%	-13%[1.46 µM]
Oc1c(C=Nc2cccnc2)sc2ccccc12	-29%	0%
COC(=O)C(NC(=O)Nc1ccccc1OC)C(C)C (stereo not given)	-4%	-8%
COc1ccccc1CNS(=O)(=O)c1ccc2[nH]cc(C(=O)O)c(=O)c2c1	2%	/
CCO[C@H]1c2c(ccc3ccc(=O)oc23)OC(C)(C)[C@@H]1O	-6%	i
COc1ccccc1/C=N/NC(=O)c1[nH]c(C)c(C(=O)N/N=C/c2ccccc2OC)c1C	-5%	-13%
CC(O)[C@H](NC(=O)C1(c2ccccc2)CCN(C(=O)OC(C)(C)C)CC1)C(=O)O (stereo not given in full)	-2%	-13%
Cc1cc(NCCc2ccc(Cl)cc2)n2ncnc2n1	-19%	-7%
CC1CCCCN1CCNc1nc(=S)[nH]c2ccccc12 (stereo not given)	-10%	i
CC(C)(C)OC(=O)N1CCC(C(=O)N[C@H](Cc2ccccc2)C(=O)O)CC1	-4%	-13%
CCCc1ccc(-c2ccc(F)c(N)c2)nc1	-17%	-20%
Cc1ccc(S(=O)(=O)Cn2nnnc2C(C(C)C)N2CCN(c3nc4ccccc4s3)CC2)cc1 (stereo not given)	-5%	-2%
O/N=C1\CCCc2ccccc21	-14%	i
CCOC(=O)C1(C)C=C(Nc2ccc(NC(C)=O)cc2)C(=O)N1c1ccc(NC(C)=O)cc1 (stereo not given)	-12%	i
O=C(CN1C(=O)C2C3CC(C(Br)C3Br)C2C1=O)N1CCN(Cc2ccccc2)CC1 (stereo not given)	-1%	-15%
NC(=O)CCN1CCN(CCOC2Cc3cc(Cl)ccc3Sc3ccccc32)CC1 (stereo not given)	?	-10%
COc1ccc(/C=C2\SC(=S)N(CCCC(=O)N3CCOCC3)C2=O)cc1OC	-13%	-6%
Cc1ccsc1C(=O)N1CCCC1(C)C(=O)NCC(C)C (stereo not given)	-2%	42%[activator]
CCOc1ccc(/C(O)=C2\C(=O)C(=O)N(c3ccccn3)C2c2ccccc2F)c(C)c1 (stereo not given)	-21%	-4%
CCN(CC)c1cc2c(c3c1ccn3C)C1CCC2C1 (stereo not given)	1%	0%
Other records follow:
SMILES	VACV Venus inh	Vaccinia mCherry
COc1ccc(Cn2c(=O)[nH]c3cc(C(=O)Nc4ccc(N5CCN(C)CC5)cc4)ccc32)cc1	-26%	?
CC(C)Sc1nnc(OC(=O)N(C)C)n1-c1ccccc1	-18%	i
Cc1c(C(=O)N(C)CCn2ccnc2C)oc2c(F)cccc12	9%	-12%
O=C(CSc1ncn[nH]1)Nc1ccc(Br)cc1Br	-23%	-24%
O=C(CN1c2ccccc2Sc2ccccc21)NNC(=O)Nc1ccc(Cl)cc1	?	-26%
Cc1cc(=O)oc(C)c1C(=O)NCc1ccco1	-3%	-18%
COc1ccc(CCNC(=O)CSc2nn(-c3ccccc3)c(=S)s2)cc1OC	-9%	-7%
CCNC(=O)C1CCCN1S(=O)(=O)c1ccc(C)cc1 (stereo not given)	-5%	-11%
CCOP(=O)(c1ccccc1)C1(O)CCCCC1 (stereo not given)	-9%	i
CCc1cc(C(=O)NCC2Cc3cc(C)cc(-c4cc(C(C)=O)ccc4F)c3O2)n(C)n1 (stereo not given)	-23%	-26%
C[C@@H]1CN([C@H](C)CO)C(=O)Cc2cc(NC(=O)CCC(F)(F)F)ccc2O[C@@H]1CN(C)C(=O)NC1CCCCC1	-17%	-21%
C/C(=N/NC(=O)c1cccs1)c1ccc(NC(=O)COc2ccc(Cl)cc2)cc1	10%	3%
CCN(CC)CCNC(=O)c1ccc(NC(=O)C2CCN(S(=O)(=O)c3ccc4c(c3)OCCO4)CC2)cc1	-17%	-27%
Cc1cccc(N2CCN(C(=O)CCCn3c(=O)[nH]c4ccsc4c3=O)CC2C)c1 (stereo not given)	-14%	-15%
COc1ccc(-n2c(C)c(C(C)=O)c3cc(OCC(N)=O)ccc32)cc1	-27%	?
COC(=O)c1sccc1NC(=S)OC	2%	i
CCN(CC)C(=O)CSCC(=O)Nc1ccccc1	-8%	-7%
COc1ccc([C@H]2/C=C\CN(C(=O)C3CC3)[C@@H](C)C(=O)N2Cc2ccc(F)cc2)cc1	-4%	-2%
Cc1nn(C)cc1CN(C)C(=O)c1nn2c(c1Cl)NC(c1cccs1)CC2C(F)(F)F (stereo not given)	-24%	-23%
COc1ccccc1CNC(=O)CN1N=C(c2ccccc2)CCC1=O	-7%	-14%
CCc1cc(-c2[nH]ncc2-c2ccc(OC)cc2)c(O)cc1O	?	?
COc1ccccc1Cn1c(C)nc2ccccc21	-7%	i
CCOc1ccc2oc(-c3ccccc3)c(C(=O)N(C)C)c2c1	-9%	-20%
CS(=O)(=O)c1ccc2nc(NC(=O)c3ccc(=O)[nH]c3)sc2c1	0%	i
CSc1nc(Oc2ccc(C)cc2)cc(C(F)(F)F)n1	-16%	/
Remaining list, next part:
SMILES	VACV Venus inh	Vaccinia mCherry
CCOc1ccc(-n2c(SCC(=O)Nc3cc(C(=O)O)ccc3Cl)nc3ccccc3c2=O)cc1	-3%	-9%
Cc1cc(S(=O)(=O)NC[C@H]2O[C@@H](n3cnc4c(N)ncnc43)[C@H](O)[C@@H]2O)c(C)s1	-15%	i
Cc1ccc(CCN2C(=O)c3ccccc3C2C(=O)NCc2cccnc2)cc1 (stereo not given)	-8%	0%
CCOc1ccc(NC(=O)C2CCN(C(=O)N3CC(C)Oc4ccc(Cl)cc43)CC2)cc1 (stereo not given)	-15%	-9%
CCc1cc2cc(C(=O)Nc3ccc(C)cc3)sc2s1	-30%	-26%
Nc1ccc2oc(-c3cccc(Br)c3)nc2c1	-7%	i
Cc1ccc(-c2nc3c4ccccc4ccn3c2Cc2ccccc2C(F)(F)F)cc1	-1%	14%
Cc1ccsc1/C=N/NC(=O)CNC(=O)c1ccco1	0%	i
COc1cc(-c2nc3ccc(Cl)cn3c2Nc2ccc3c(c2)OCO3)ccc1O	-21%	-27%
CCOc1cc(C(=S)N2CCN(C)CC2)ccc1OCC(=O)N1CCOCC1	-7%	-13%
CN1CCCN(Cc2nc(-c3cccc(C(F)(F)F)c3)no2)CC1	-26%	?
CC(C)CC(=O)Nc1ccnn1C1CCN(C(=O)c2ccccc2F)CC1	-4%	i
CC(C)(C)c1ccc(OCC(=O)N(c2ccccn2)C2CCCCC2)cc1	-16%	-14%
CC(=O)c1cccc(Nc2ncnc3c2cnn3-c2cccc(Cl)c2)c1	-8%	-19%
Cc1ccc(CNC(=O)CCS(=O)(=O)c2ccc3c(c2)NC(=O)CS3)cc1	-6%[7.34 µM]	i[7.34 µM]
CCn1c(SCC(=O)c2ccc3c(c2)Cc2ccccc2-3)nnc1-c1ccc(N)cc1	-18%	-22%
Cc1ccccc1N1CCN(Cc2ccc3c(c2)OCO3)CC1	-7%	-4%
C/C(=N\NC(=O)c1cccc(S(=O)(=O)N2CCOCC2)c1)c1ccc(OC(F)F)cc1	-16%	-8%
COc1ccc(NC(=O)N(C)C[C@H]2Oc3c(NS(=O)(=O)c4ccc(F)cc4)cccc3C(=O)N([C@H](C)CO)C[C@@H]2C)cc1	3%	-18%
CC1=C(C(=O)N(C)C)CC(CC(=O)NC2CCCCC2)C(=O)N1CCCN1CCCC1=O (stereo not given)	-9%	i
CC(=O)NC(=S)Nc1cc(C(F)(F)F)ccc1N1CCOCC1	?	?
COc1ccc(/C=N/NC(=O)c2nnn(-c3nonc3N)c2CN(C)c2ccccc2)cc1	-15%	?
COc1cccc(/C=C/C(=O)c2ccc(NS(=O)(=O)c3ccc(C)cc3)cc2)c1	?	?
CC(C)c1ccc(N(C(=O)C(F)(F)F)C(C(=O)NC2CCCCC2)c2ccncc2)cc1 (stereo not given)	-5%	-1%
CC(C)[C@H](NC(=O)N1CCn2c1nc1ccccc12)C(=O)N[C@H](Cc1ccccc1)C(=O)O	-1%	-9%

19 entries from above, arranged by length of the SMILES, ascending.
SMILES	VACV Venus inh	Vaccinia mCherry
Nc1ccc2oc(-c3cccc(Br)c3)nc2c1	-7%	i
Cc1ccsc1/C=N/NC(=O)CNC(=O)c1ccco1	0%	i
Cc1ccccc1N1CCN(Cc2ccc3c(c2)OCO3)CC1	-7%	-4%
CC(=O)NC(=S)Nc1cc(C(F)(F)F)ccc1N1CCOCC1	?	?
CN1CCCN(Cc2nc(-c3cccc(C(F)(F)F)c3)no2)CC1	-26%	?
CC(=O)c1cccc(Nc2ncnc3c2cnn3-c2cccc(Cl)c2)c1	-8%	-19%
CCOc1cc(C(=S)N2CCN(C)CC2)ccc1OCC(=O)N1CCOCC1	-7%	-13%
Cc1ccc(CCN2C(=O)c3ccccc3C2C(=O)NCc2cccnc2)cc1 (stereo not given)	-8%	0%
COc1cc(-c2nc3ccc(Cl)cn3c2Nc2ccc3c(c2)OCO3)ccc1O	-21%	-27%
Cc1ccc(CNC(=O)CCS(=O)(=O)c2ccc3c(c2)NC(=O)CS3)cc1	-6%[7.34 µM]	i[7.34 µM]
CCn1c(SCC(=O)c2ccc3c(c2)Cc2ccccc2-3)nnc1-c1ccc(N)cc1	-18%	-22%
COc1cccc(/C=C/C(=O)c2ccc(NS(=O)(=O)c3ccc(C)cc3)cc2)c1	?	?
COc1ccc(/C=N/NC(=O)c2nnn(-c3nonc3N)c2CN(C)c2ccccc2)cc1	-15%	?
CCOc1ccc(NC(=O)C2CCN(C(=O)N3CC(C)Oc4ccc(Cl)cc43)CC2)cc1 (stereo not given)	-15%	-9%
CC(C)c1ccc(N(C(=O)C(F)(F)F)C(C(=O)NC2CCCCC2)c2ccncc2)cc1 (stereo not given)	-5%	-1%
C/C(=N\NC(=O)c1cccc(S(=O)(=O)N2CCOCC2)c1)c1ccc(OC(F)F)cc1	-16%	-8%
CCOc1ccc(-n2c(SCC(=O)Nc3cc(C(=O)O)ccc3Cl)nc3ccccc3c2=O)cc1	-3%	-9%
Cc1cc(S(=O)(=O)NC[C@H]2O[C@@H](n3cnc4c(N)ncnc43)[C@H](O)[C@@H]2O)c(C)s1	-15%	i
COc1ccc(NC(=O)N(C)C[C@H]2Oc3c(NS(=O)(=O)c4ccc(F)cc4)cccc3C(=O)N([C@H](C)CO)C[C@@H]2C)cc1	3%	-18%

(cont.)
SMILES	VACV Venus inh	Vaccinia mCherry
COC(=O)c1cccc(NC(=O)Cn2cnc3ccccc3c2=O)c1	-10%	-19%
O=C(c1ccc2c(c1)OCO2)N1CCN(c2ccccc2F)CC1	-11%	-22%
O=C(Cn1nc(C(=O)O)c2ccccc2c1=O)Nc1cccc(S(=O)(=O)N2CCCCCC2)c1	-4%	i
COc1ccc([C@H]2CC(=O)C=C(c3cccc(OC)c3OC)C2)cc1OC	-28%	?
Cc1sc(NC(=O)/C=C/c2ccc3c(c2)OCO3)nc1-c1ccccc1	-21%	-24%
CCOC(=O)c1c(NC(=O)CCC(=O)O)sc2c1CCCCC2	-7%	i
C[C@@H](NC(=O)c1ncn2c1c(=O)[nH]c1ccc(Br)cc12)c1ccccc1	?	?
CCOC(=O)c1ccc(NC(=O)c2c(NCc3ccccc3)[nH]c(=O)[nH]c2=O)cc1	-10%	i
Nn1cnnc1SCC(=O)Nc1ccc(C2CCCCC2)cc1	0%	-2%
CC(C)NC(=O)CSc1cn(CC(=O)N2CCCCCC2)c2ccccc12	-8%	-1%
COc1cc2c(cc1OC)C(c1ccc3c(c1)OCO3)CC(=O)N2 (stereo not given)	-22%	-16%
Cc1ccc(S(=O)(=O)N[C@H](C(=O)OCC(=O)NC(=O)Nc2ccc3c(c2)OCCO3)C(C)C)cc1	-15%	-23%
CCOc1cc(C2C(C#N)=C(N)Oc3n[nH]c(-c4ccccc4)c32)ccc1O (stereo not given)	6%	5%
Cc1ccccc1NS(=O)(=O)c1ccc(C(=O)NCC(c2ccco2)N(C)C)cc1 (stereo not given)	-18%	-5%
Cc1ccc(CNC(=O)C2CCCN(c3nc4ccccc4n4cccc34)C2)cc1 (stereo not given)	2%	-5%
CC(=O)c1sc(NC(=O)COc2ccc(C)c(C)c2)nc1C	-11%	i
COc1cc2c(cc1OC)C1C(=O)c3ccc4c(c3OC1CO2)C=CC(C)(C)O4 (stereo not given)	?	?
Cc1cc(N(C)N)nc(NC(=O)NS(=O)(=O)c2ccccc2Cl)n1	-8%	?
CC(C)C[C@@H](CN)NC(=O)c1nc[nH]c1C(=O)N[C@@H](C)C(=O)CNC[C@H](C)NC(=O)c1nc[nH]c1C(=O)N[C@@H](C)C(=O)O	-8%	i
Cc1ccc(Cc2nc(-c3ccccn3)no2)cc1	-7%	-22%
CC(C)(C)OC(=O)N/N=C/c1ccc(Br)cc1	-4%	-7%
Cc1ccc(-[n+]2c(Cc3nn(-c4ccccc4)c(C)[n+]3-c3ccc(C)cc3)nn(-c3ccccc3)c2C)cc1	1%	i
C=C(Cl)CSC(=S)N(CC)CC	-15%	i
CC(C(=O)Nc1ccc(S(=O)(=O)N2CCOCC2)cc1)N(c1ccccc1)S(C)(=O)=O (stereo not given)	-7%	/
Cn1cc(/C=C/C(=O)N2CCCC(C(=O)c3ccc(C(C)(C)C)cc3)C2)cn1 (stereo not given)	-6%	-1%
COc1ccc(C(=O)OC2CCN(C)CC2)cc1	1%	/
CCOc1ccc(C(=O)N/N=C/c2ccc(SC)cc2)cc1	-15%	i
COc1ccc(Br)cc1CC1C(=O)Nc2ccccc21 (stereo not given)	?	-26%

High-throughput results deposited in PubChem BioAssay by National Center for Advancing Translational Sciences (NCATS).
